Screening data from PubChem BioAssay.
Sa growth 42C – blocks Staphylococcus aureus growth; S. aureus RN4220 growth, OD600, 20 h, 42 °C; active compounds read low; relative growth, % (no concentration beside the values); 170,000 compounds, 0.53% hits; AID 720641;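 active = growth at 42 °C up to 50% and 20 or more points under that at 30 °C, or under 10% at both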;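 also: 300 nL library stock went into each well; scaled to the means of positive and negative controls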
GIV Gai3 FP – GIV-Galpha-i interaction inhibition; P08753; Galpha-i3/FITC-GIV peptide fluorescence polarization, 90 min; active compounds read low; scaled: aluminum fluoride 0%, vehicle 100%; percent of control (FP), % (test concentration not listed); 210,000 compounds, 0.42% hits;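 active = replicate mean at 85% of control or lower, very high polarization wells dropped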;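 also: lower values mean more displacement of the GIV peptide from Galpha-i3; wells of about 15 µL received 100 nL stock; the first replicate is given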
Target sequence (P08753 whole entry, looked up): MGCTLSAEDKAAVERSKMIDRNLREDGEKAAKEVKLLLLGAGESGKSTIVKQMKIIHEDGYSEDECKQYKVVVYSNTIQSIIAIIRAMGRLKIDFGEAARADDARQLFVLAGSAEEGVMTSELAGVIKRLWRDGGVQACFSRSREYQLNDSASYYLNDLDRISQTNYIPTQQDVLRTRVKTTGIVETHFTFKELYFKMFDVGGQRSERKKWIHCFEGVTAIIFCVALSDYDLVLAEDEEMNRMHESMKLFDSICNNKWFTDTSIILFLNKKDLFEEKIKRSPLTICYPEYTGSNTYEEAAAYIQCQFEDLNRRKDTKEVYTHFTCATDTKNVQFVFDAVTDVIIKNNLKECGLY
HCMV UL50-53 inh – cytomegalovirus nuclear egress complex inhibition; HTRF UL50-UL53 interaction, normalized percent inhibition; inhibition, % (no concentration beside the values); 190,000 compounds, 0.15% hits; AID 1918969;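 active = both replicates at 50% or more, plus weaker picks with an unusually low signal ratio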;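 also: stock transfer was 100 nL into about 20 µL; 0% = negative control wells and 100% = wells with untagged competitor protein; inactives centre near -12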
Sa growth 42C second temp – also measured in Sa growth 42C; calls as there; relative growth, %; measured here: growth at 30 °C;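 optical density after 20 h as mean of two plates; 100% = untreated growth and lower means inhibition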
An asterisk follows results filed as active; / = no result given; & = joins results of further samples. This is a random part of the collection. Share with any hit: about 0.83%.

molecule | Sa growth 42C | Sa growth 42C second temp | GIV Gai3 FP | HCMV UL50-53 inh
CC1=CC(=O)N(c2ccc(OC(F)(F)F)cc2)C1=O | 94 | 92 | 104 | 14
c1ccc(Nc2nnc(-c3cccc4ccccc34)o2)cc1 | 120 | 105 | 96 | -8
COC(=O)CC(=O)CSc1nc2c(cc1C#N)CCC2 | 114 | 90 | 108 | -18
CN(Cc1nc(-c2ccccc2)no1)C(=O)CC(C)(C)C | 88 | 102 | 104 | 18
O=C(NC(=O)c1ccccc1)Nc1ccc(-c2cc(C(F)(F)F)nn2-c2ccccc2)cc1 | 100 | 105 | 104 | 0
CCn1c(=O)c(C(=O)Nc2ccccc2F)c(O)c2ccccc21 | / | / | 113 | -2
COc1cc(Cl)c(C)cc1NC(=O)c1cc2c(Cl)nc3ccc(C)cc3c2s1 | 99 | 92 | 104 | -20
Cc1ccc(C(=O)N2CCc3cc(C(=O)C(C)N4CCC(C)CC4)ccc32)cc1 (configuration not stated) | 100 | 93 | 101 | -8
O=C(Cc1ccccc1)NCCCN1CCOCC1 | 96 | 86 | 95 | -7
NC(=O)c1c(NC(=O)c2ccccc2)sc2c1CCC2 | 120 | 87 | / | -8
Cc1cc(Nc2cccc(C(=O)O)c2)n2nc(C)nc2n1 | 89 | 94 | 106 | 2
O=C(CSc1nnnn1C1CCCC1)NN1C(=O)NC(c2ccccc2)(c2ccccc2)C1=O | 104 | 82 | / | -8
Nc1cc(=O)[nH]c(SCc2ccccc2Cl)n1 | 114 | 96 | 100 | 1
C=CCn1c(Cc2csc(N)n2)nnc1SCc1ccc(C(=O)OC)cc1 | 107 | 87 | 106 | -6
Cc1ccc(-c2noc(-c3ccc(Nc4ccc5c(c4)OCO5)nn3)n2)cc1 | / | / | 105 | 1
N#CC1=C(SCC(=O)OCc2ccccc2)NC(=O)CC1c1ccc(Cl)cc1Cl (configuration not stated) | / | / | 104 | -20
CN1CCN(c2ccc(C(=O)O)cc2NS(=O)(=O)c2ccc(F)cc2)CC1 | / | / | 104 | -33
CCN(CC)CCCNc1nc(-c2ccccc2)nc2ccccc12 | / | / | 100 | -4
Cc1c2c(=O)n(-c3ccccc3)n(Cc3ccccc3Cl)c2cc(=O)n1CCCN1CCCC1=O | / | / | 106 | 5
CCCC1(C)NC(=O)c2ccccc2O1 (configuration not stated) | 91 | 79 | 106 | -24
O=C(O)c1cc(=O)c2c(OCC(O)COc3cccc4oc(C(=O)O)cc(=O)c34)cccc2o1 | 94&88 | 93&89 | 105 | -41&-15&-17&-33
Cc1nc2ccc(NC(=O)N3CC4(C)CC3CC(C)(C)C4)cc2nc1C (configuration not stated) | 96 | 86 | / | -17
Oc1ccc(Br)cc1CNc1cccc(C(F)(F)F)c1 | 34 | 27 | 99 | 7
Cc1nnc(SC(c2ccccc2)c2ccccc2)s1 | 123 | 106 | / | 2
Cc1c(C(=O)OC2CCCCC2)[nH]c2c1C(=O)CC(c1ccc(F)cc1)C2 (configuration not stated) | 111 | 96 | 100 | -2
CCCCc1nn2c(=O)cc(COC(=O)c3ccc(NC(=O)C(CC)CC)cc3)nc2s1 | 91 | 89 | 100 | /
CCC(C)OC(=O)C1=C(C)NC2=C(C(=O)CC(c3ccc(OC)cc3)C2)C1c1ccc(OC)cc1OC (configuration not stated) | / | / | 103 | -8
CCc1ccc(C2C3=C(CCCC3=O)Nc3c2c(=O)n(C)c(=O)n3C)cc1 (configuration not stated) | 118 | 83 | 100 | /
CCOC(=O)COc1c(Br)cc(C=C2C(=O)N(C)C(=O)N(C)C2=O)cc1OC | / | / | 104 | -21
COc1ccc(-n2c3c(cc(-c4nc(-c5ccc(C)cc5)cs4)c2=O)C(=O)CC(C)(C)C3)cc1 | 92 | 98 | 103 | -9
COc1ccccc1CNC(=O)c1cccn1-c1nnc(N2CCCCC2)s1 | 98 | 97 | 97 | /
CC(N)(C(=O)O)c1ccc(C(=O)O)cc1 (configuration not stated) | / | / | 104 | -9
COc1ccc(S(=O)(=O)N2CCC(n3cnc4cccnc43)CC2)cc1 | / | / | 102 | -17
O=C(Nc1cccc(-c2noc(C3CC3)n2)c1)C1CC(=O)N(c2ccccc2)C1 (configuration not stated) | / | / | 102 | 10
Cc1cc(OCCn2cc(C(=O)c3ccco3)c3ccccc32)ccc1Cl | 89 | 87 | 100 | -23
CCOC(=O)c1c(CSc2nnc(Cc3csc(C)n3)o2)nc2ccccc2c1C | 98 | 89 | / | -9
O=C(Oc1ccc2oc(=O)sc2c1)c1ccc(Br)cc1 | 106 | 83 | / | -6
O=C(CCn1cnnn1)Nc1ccccc1 | 106 | 89 | 106 | /
CC(C(=O)NC1CCCC1)n1cc(Br)ccc1=O (configuration not stated) | 100 | 98 | / | -1
CCc1nc(-c2cc(S(=O)(=O)N3CCC(C(=O)NC(C)(C)C)CC3)c(C)s2)no1 | / | / | 101 | -11
NC(=O)c1cc(S(=O)(=O)N2CCc3ccccc32)cs1 | 91 | 91 | 98&101 | -38&-7
CNC(=O)Nc1ccc(C(C)(C)C)cc1Br | 111 | 88 | 100 | -31
Cc1oc(-c2ccc(Cl)cc2)nc1CS(=O)CC(=O)NC(C)C (configuration not stated) | 94 | 100 | 111 | 0
O=C(CSc1nnc(-c2cccs2)o1)Oc1ccccc1 | 98 | 80 | 99 | -31
COc1ccc(-c2noc(CSc3nc4ccccc4[nH]3)n2)cc1 | 109 | 88 | 106 | -6
CC(=O)OCC(=O)[C@H]1CCC2C3CCC4=CC(=O)CC[C@]4(C)C3CC[C@@]21C (some centres not stated) | 106 | 92 | / | -17
CCOC(=O)CCc1c(C)c(C#N)c2nc3ccccc3n2c1Cl | 90 | 67 | 116 | /
Cc1nc2cc(-n3c(O)c[nH]c3=O)ccc2s1 | 91 | 94 | 109 | -3
Cc1nn(CCCC(=O)NC2CCCCC2)c(=O)c2nccn12 | 98 | 91 | 98 | -6
CCOC(=O)c1c(NC(=O)CSc2ncnc3sc(C)c(C)c23)sc(C)c1C | / | / | 101 | -6
CCC1CCCCN1CCCNC(=O)c1cc2c(Cl)nc3ccc(C)cc3c2s1 (configuration not stated) | 107 | 71 | 120 | -27
Cc1c(-c2nc(-c3ccccc3)no2)nnn1-c1ccc(C(C)C)cc1 | / | / | 101 | -22
CC1CN(C(=O)C2CCCO2)CC(C)O1 (configuration not stated) | 103 | 96 | 99 | -6
COc1ccc(-c2cn3c(n2)sc2cc(C(=O)NC4CCCCCC4)ccc23)cc1 | 114 | 93 | 107 | /
O=C(COc1nc2ccccc2nc1N1CCOCC1)NCCc1ccc(F)cc1 | 88 | 92 | / | -17
Cc1ccc(C2=NN(C(=O)CNc3ccc(S(=O)(=O)N4CCCC4)cc3)C(c3ccco3)C2)cc1 (configuration not stated) | 93 | 107 | / | -15
COc1ccc(CNC(=O)c2cc(C)nc3c2c(C)nn3-c2ccc(C)c(C)c2)cc1 | / | / | 96 | -20
CCOC(=O)c1c(C)oc2nc(C)nc(N3CCN(c4cccc(C)c4C)CC3)c12 | 111 | 90 | 111 | /
O=C(Nc1ccc(Cl)cc1)C(O)c1ccccc1 (configuration not stated) | 94 | 119 | 105 | -8
Cc1oc(C(=O)O)cc1COc1ccccc1Cl | 99 | 107 | 99 | 0

Next section:
molecule | Sa growth 42C | Sa growth 42C second temp | GIV Gai3 FP | HCMV UL50-53 inh
N=C1SCC(=O)N1C(=O)c1ccccc1 | 86 | 78 | / | -14
CCN(CCCNc1nc(-c2cc(OC)ccc2OC)no1)c1ccccc1 | 107 | 85 | 98 | /
NS(=O)(=O)c1ccc(NC(=O)CSC2CCCCC2)cc1 | 110 | 88 | / | -23
C=CCN1C(=O)NC2(CCCCC2)C1=O | 104 | 81 | 103 | -52
O=C(CS(=O)(=O)c1ccc(C(F)(F)F)cc1Cl)Nc1ccc(F)cc1 | 87 | 84 | / | -18
O=C(Nc1ccc2c(c1)OCC(=O)N2Cc1ccccc1)c1ccco1 | 91 | 75 | 97 | 10
CCn1c(=S)[nH]c2c(C)nn(CC)c2c1=O | / | / | 101 | -33
Fc1ccc(-c2ccc(SCc3nc(-c4ccc(C(F)(F)F)cc4)no3)nn2)cc1 | / | / | 106 | -14
Nc1ccccc1SC(CC(=O)c1cccs1)c1cccs1 (configuration not stated) | 50 | 54 | 95 | -19
N#CC(C(=O)Nc1cccc(C(F)(F)F)c1)=C1CCCCCC1 | 72 | 67 | 103 | /
COC(=O)c1ccccc1NS(=O)(=O)c1cc2c(cc1C)N(C)CCO2 | 96 | 104 | 98 | /
O=C(COc1ccc(Cl)cc1Cl)Nc1nnc(C2=COCCO2)o1 | 48 | 17 | 108 | 2

Following part
Order of values – Sa growth 42C	Sa growth 42C second temp	GIV Gai3 FP	HCMV UL50-53 inh
- COc1ccc(NC(=O)n2ncc3c(C)cccc32)cc1OC
 : /	/	108	-11
- CCOC(=O)c1c(S(=O)(=O)NCC(=O)N(C)c2ccc(C)cc2)c(C)n(C)c1C
 : 95	99	105	/
- CCOC(=O)c1cnc(NCc2ccc(Cl)cc2)c2ccccc12
 : 75	90	103	/
- Cc1ccccc1C(=O)OCc1cc(=O)n2nc(C3CCCCC3)sc2n1
 : 75	92	98	/
- Cc1cc(C)cc(NC(=O)Nc2ccccc2C(=O)Nc2cc(C)cc(C)c2)c1
 : 110	85	98	/
- O=C(NCCc1nc2ccccc2n1Cc1ccc(Cl)cc1Cl)c1ccco1
 : 97	77	97	4
- C=CCc1ccccc1OCC(O)CN1CCN(CC)CC1 (configuration not stated)
 : 104	86	/	-38
- Cc1ccc(Nc2nn3c(=O)c4cc5c(cc4nc3s2)OCO5)cc1Cl
 : 92	89	95	-7
- CN(C(=O)Cn1c(=O)oc2ccccc21)c1ccccc1
 : 106	93	/	-11
- CCCn1c(C2CC(=O)N(c3ccc(CC)cc3)C2)nc2ccccc21 (configuration not stated)
 : 117	91	/	-5
- CCC(Sc1nc(C)cc(=O)[nH]1)C(=O)Nc1sc2c(c1C#N)CCCC2 (configuration not stated)
 : 97	73	101	3
- COc1ccccc1OCC(=O)Nc1cc(-c2nc3ccccc3[nH]2)ccc1C
 : 132	74	100	-2
- COCCNC(=O)NCC(c1ccccc1)c1c[nH]c2ccccc12 (configuration not stated)
 : /	/	95	-28
- O=C(C[n+]1cccc(NC(=O)c2ccccc2)c1)c1ccccc1
 : 103	89	96	/
- CCN(C(=O)Cn1cc(C(=O)C2CC2)c2ccccc21)c1ccccc1
 : 125	81	/	-7

Among those listed so far, six contain a CF3 group.
Order of values – Sa growth 42C	Sa growth 42C second temp	GIV Gai3 FP	HCMV UL50-53 inh
- CC1=CC(=O)N(c2ccc(OC(F)(F)F)cc2)C1=O
 : 94	92	104	14
- O=C(NC(=O)c1ccccc1)Nc1ccc(-c2cc(C(F)(F)F)nn2-c2ccccc2)cc1
 : 100	105	104	0
- Oc1ccc(Br)cc1CNc1cccc(C(F)(F)F)c1
 : 34	27	99	7
- O=C(CS(=O)(=O)c1ccc(C(F)(F)F)cc1Cl)Nc1ccc(F)cc1
 : 87	84	/	-18
- Fc1ccc(-c2ccc(SCc3nc(-c4ccc(C(F)(F)F)cc4)no3)nn2)cc1
 : /	/	106	-14
- N#CC(C(=O)Nc1cccc(C(F)(F)F)c1)=C1CCCCCC1
 : 72	67	103	/

(list continues)
Order of values – Sa growth 42C	Sa growth 42C second temp	GIV Gai3 FP	HCMV UL50-53 inh
- Cc1ccc(Cn2c(C)c(CNCc3ccccc3F)c(C(=O)O)c2C)cc1
 : 114	89	103	-20
- CC(C)c1nnc(N2C(=O)c3oc4ccccc4c(=O)c3C2c2ccccc2F)s1 (configuration not stated)
 : 101	90	101	-43
- O=C(c1ccccc1)N(C(=O)N1CCCCC1)c1ccccc1
 : 106	101	107	1
- O=C(O)C1CC(=O)N(Cc2ccccc2)C1c1ccccc1 (configuration not stated)
 : 123	90	/	-9
- CC(C)Cc1cc(-c2nn3c(-c4cccc(F)c4)nnc3s2)n[nH]1
 : /	/	103	-20
- O=S(=O)(NCc1ccco1)c1cccc(-n2cnnn2)c1
 : 92	93	/	-25
- COc1ccc(S(=O)(=O)NCC(c2ccco2)N2CCN(c3ccccc3)CC2)cc1OC (configuration not stated)
 : 99	88	98	/
- Cc1ccc(S(=O)(=O)c2ccc(-n3nc(C)cc3N)cc2)cc1
 : 82	100	/	5
- O=C(NCC1CCCO1)c1cc2ccccc2nc1Cl (configuration not stated)
 : 98	101	/	17
- COc1ccc(Cl)cc1-n1nnc(-c2nc(-c3ccc4c(c3)OCO4)no2)c1N
 : 96	76	101	-31
- Cc1sc(NC(=O)C(C)(C)C)nc1-c1ccc2c(c1)NC(=O)CO2
 : /	/	98	1
- Cc1cc(C)cc(NC(=O)C(Cc2ccccc2)NS(=O)(=O)c2ccc3c(c2)CCC(=O)N3)c1 (configuration not stated)
 : 117	90	103	-19
